Ba CapD inh: inhibitors of Bacillus anthracis CapD enzyme; z-score (no concentration beside the values); hit rate 0.23% among 140,000; AID 492967; purified CapD enzyme, fluorescence intensity read-out; hits give low values; some hits fall short of the stated cut;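 active means z-score under -4 in either of two replicates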;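 further: stock transfer was 100 nL into about 40 µL; score is relative to mean and spread of the plate; one replicate is shown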
AID504770: growth inhibitors of E. coli YBA685 in a screen for V. cholerae RctB (chromosome II replication) inhibitors; E. coli YBA685 rctB-dependent plasmid, OD600 growth, 3 h; hits give low values; z-score (concentration not given with the values); hit rate 0.27% among 130,000;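 active means z-score under -2 on both plates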;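 further: wells of about 30 µL received 100 nL stock; score is relative to mean and SD of the test wells; the first replicate is given; strong numbers were not always called active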
* = called active by the depositor; / = no result given. No enrichment for hits; 0.41% or so of the library scored in one or more.

Fields: AID504770	Ba CapD inh
CC(C)ON1C(=O)C2C3C=CC(O3)C2C1=O (centres undefined)
    -1.25	0.14
Cn1c(Cn2ccnc2)nc2ccccc21
    -0.8	-0.89
O=C(CSc1ccc2ccccc2c1)NCCc1ccc(O)c(O)c1
    -0.3	0.18
Cc1ccc2occ(CN(C)CCc3ccccn3)c(=O)c2c1
    0.75	0.735
Cc1csc(NC(=O)CCCC(=O)O)n1
    0.5	0.53
O=C(O)C(CCCCN1C(=O)C2C3C=CC(C3)C2C1=O)N1C(=O)C2C3C=CC(C3)C2C1=O (centres undefined)
    /	0.265
Cc1sc(-c2ccc(Cl)cc2)nc1CC(=O)NCCCN1CCCCC1C (centres undefined)
    /	8.89
Cc1ccc(S(=O)(=O)NCC(=O)OCc2cc(Cl)cc3c2OCOC3)cc1
    -1.7	/
CNC(=O)COc1ccccc1O
    0.55	-0.64
COCCN(Cc1ccco1)C(=O)c1noc2c1COc1ccc(C)cc1-2
    -0.8	2.99
CCOc1ccc2[nH]c(=S)sc2c1
    1.55	-1.9
CCOC(=O)c1sc(NC(=O)c2sc3nc[nH]c(=O)c3c2C)nc1C
    /	0.575
CCc1ccc(NC(=O)CSc2nc3nccnc3c(=O)n2CCC(C)C)cc1
    -0.35	-0.36
O=C(C1Cc2ccccc2CN1S(=O)(=O)c1cccs1)N1CCCCC1 (centres undefined)
    2.4	-0.515
Cc1ccc2nc(SCC(=O)N3CCc4ccccc43)[nH]c2c1
    -0.5	0.035
FC(F)(F)c1ccnc(N2CCN(Cc3c[nH]c4ccccc34)CC2)c1
    -0.55	2.46
COC(=O)c1ccc(CSc2nc(CN3CCOCC3)nc3sc4c(c23)CCCC4)o1
    -0.1	/
CC(C)c1cc(CN2CCN(c3ccccc3)CC2)c(O)c(CN2CCN(c3ccccc3)CC2)c1
    -0.15	-0.255
COc1ccc(OC)c(/C=C2\N=C(c3cc(Br)ccc3OC)OC2=O)c1
    /	0.585
CC(C)(C)NC(=O)c1ccc(C(C)(C)C)cc1
    0.2	/
COC(=O)C(Cc1ccc(Cl)cc1)NC(=O)OCCc1ccccc1OC (centres undefined)
    /	-0.24
Cc1noc2ncnc(SCc3ccc(Cl)cc3)c12
    -0.95	9.73
CC1CCN(CN2C(=O)/C(=C\c3ccccc3Cl)SC2=S)CC1
    /	-2.98
Cc1nn(-c2ccccc2)c2sc(C(=O)Nc3ccccc3)cc12
    1.7	0.075
CS(=O)(=O)c1ccc(COc2ccccc2C(=O)NCc2ccncc2)cc1
    /	-0.45
Cc1ccc(Nc2nc3nonc3n3cnnc23)c(C)c1
    /	-0.815
Cc1ccc(-n2c(C)cc(/C=C3/C(=O)N(C4CCCCC4)C(=S)N3C)c2C)cc1
    -0.85	0.565
CCC1C2CC3C4N(C)c5ccccc5C45CC(C2C5O)N3[C@@H]1O (some centres undefined)
    -0.55	0.605
CC(=O)NC1C(OCc2ccccc2)OC(C(N)=O)C(OC(C)=O)C1OC(C)C(=O)O (centres undefined)
    /	-0.29
O=C(c1cccs1)N1CCSC1=S
    0.5	-4.83*
Cc1c(C(=O)CSc2n[nH]c(=O)n2C2CC2)sc2ccc(Cl)cc12
    -0.45	-0.69
CC(C)(Oc1ccc(Cl)cc1)C(=O)NCC1CCCO1 (centres undefined)
    -0.85	0.445
CCN1C(=O)/C(=C2/C=Cc3ccccc3N2CC)SC1=S
    -0.5	-0.755
Cc1cc(N2CCOCC2)nc2ccc(N)cc12
    -0.65	61.8
C=CCOC1(c2ccccc2)OC(=O)c2ccccc21 (centres undefined)
    1.2	0.295
CC1CCCC(C)N1C(=O)CN1CCC(O)(c2ccccc2)CC1 (centres undefined)
    0.4	/
Oc1ccc(Br)cc1-c1ccncn1
    /	-0.35
O=[N+]([O-])c1c(NCCCO)cc(N2CCOCC2)c2nonc12
    /	-1.21
CN1CCN(c2ccc(C(F)(F)F)cc2N)CC1
    -1.05	-0.35
Brc1ccc(-c2ccc3ccccc3n2)cc1
    -0.85	-0.59
CC(C)(C)c1ccc(OC(=O)c2csnn2)cc1
    /	0.715
CCOc1ccc(-c2[nH]nc3c2C(c2cn[nH]c2-c2ccc(F)cc2)C(C#N)=C(N)O3)cc1 (centres undefined)
    /	0.21
CC1(C)OC(=O)N(CCC#N)C1(C)O (centres undefined)
    /	2.65
CCn1c(NCc2ccc3c(c2)OCO3)nc2ccccc21
    0.2	0.105
CC(OC(=O)c1ccccc1NC(=O)c1ccco1)C(=O)N1CCN(C(=O)c2ccco2)CC1 (centres undefined)
    0.1	/
CCOC(=O)N1CCC(NS(=O)(=O)c2ccccc2)CC1
    0.55	-0.49
COc1cccc(C(=O)O/N=C(\N)Cc2ccc(OC)c(OC)c2)c1
    -0.85	0.23
Nn1cnn2c(SCC(=O)Nc3nnc(SCC(=O)Nc4ccc(Cl)cc4)s3)nnc12
    /	-0.235
CC1CCC(C(=O)NC(Cc2c[nH]c3ccccc23)C(=O)NC2CCCCC2C)CC1 (centres undefined)
    0	-0.475
CCCOc1ccc(C2NC(=O)NC(C)=C2C(=O)OCc2ccc3c(c2)OCO3)cc1 (centres undefined)
    /	-0.23

The results go on:
Fields: AID504770	Ba CapD inh
NC(=O)c1ccc(-c2ccc(/C=C3\C(=O)ON=C3c3ccccc3)o2)cc1
    -1.2	87.5
O=C1c2c(sc3c2CCCC3)NC2(C(=O)N(Cc3c(Cl)cccc3Cl)c3ccccc32)N1CCc1ccccc1 (centres undefined)
    /	0.065
CCN(CC)c1nc(N2CCN(CCO)CC2)nc2ccccc12
    -0.55	/
CCS(=O)(=O)Nc1ccc(C(=O)Nc2ccc3c(c2)OCCO3)cc1
    -0.45	/
NC(=S)Nc1ccccc1
    -0.7	-0.135
Cc1ccc(Sc2ccc(N)cn2)cc1
    -0.6	18.4
CSC1=C(C#N)C(=O)NC(c2c(Cl)cccc2Cl)S1 (centres undefined)
    -0.1	0.33
CN(Cc1ccccc1)C(=O)CSc1ccc(Br)cc1
    -0.3	-0.285
ClC(Cl)=Cc1nc2ccccc2s1
    1	0.645
N#CCC(=O)Nc1ccc(S(N)(=O)=O)cc1
    -2.05	/
COc1c(Cl)cc([N+](=O)[O-])c(OC)c1C(N)=O
    /	-0.13
Cc1ccc(-n2c(SCC(=O)c3ccc(C#N)cc3)nc3ccccc32)cc1
    0.25	/
CC(C)CNC(=O)c1cccc2ccccc12
    -1	-0.055
O=C(NCc1cccs1)c1cccc(S(=O)(=O)N2CCCCC2)c1
    1.6	0.11
Cn1c(C(=O)O)cc2cc(S(C)(=O)=O)ccc21
    /	1.4
COc1ccc(NC(=O)c2sc(=S)n3c2[nH]c(=O)c2sccc23)cc1OC
    -0.2	-0.835
N#CC1(C#N)[C@@H]2c3ccccc3C=CN2[C@@H](C(=O)c2ccccc2)[C@@H]1c1cccs1
    -0.25	1.97
COc1ccc(NC(=O)CCCc2nnc3n(C(C)C)c(=O)c4sccc4n23)cc1OC
    0.3	0.01
Oc1ccc(C2SCCS2)cc1
    -0.85	/
CN(C)C=Nc1c([N+](=O)[O-])cc(C(F)(F)F)cc1[N+](=O)[O-]
    /	-0.91

Individual results from the list.
AID504770 result of Oc1ccc(C2SCCS2)cc1 → -0.85
AID504770 result of Cc1ccc(-n2c(SCC(=O)c3ccc(C#N)cc3)nc3ccccc32)cc1 → 0.25
Ba CapD inh result of Cn1c(C(=O)O)cc2cc(S(C)(=O)=O)ccc21 → 1.4
Ba CapD inh result of COc1ccc(NC(=O)CCCc2nnc3n(C(C)C)c(=O)c4sccc4n23)cc1OC → 0.01
Ba CapD inh result of COc1ccc(NC(=O)c2sc(=S)n3c2[nH]c(=O)c2sccc23)cc1OC → -0.835
AID504770 result of CC(C)CNC(=O)c1cccc2ccccc12 → -1

(continued)
Fields: AID504770	Ba CapD inh
FC(F)(F)Oc1ccc(-c2n[nH]c(=S)n2-c2ccc(Cl)cc2)cc1
    /	0.785
COc1ccccc1N/C=C(\C#N)c1nc2ccccc2[nH]1
    0.45	1.03
CCOC(=O)C1CCCN(C(=O)CC)C1 (centres undefined)
    0.6	0.81
CCCCc1c(O)nc(SCCN(C)C)n(-c2ccccc2)c1=O
    -0.95	0.195
CCc1ccc(NC(=O)C2CCCN(C(=O)c3cnn(-c4ccccc4)c3-n3cccc3)C2)cc1 (centres undefined)
    -0.4	-0.245
Cc1ccc(C23CC4CC(CC(C(=O)Nc5cccc(C)c5C)(C4)C2)C3)cc1
    /	-0.01
O=C(CSc1nc2ccccc2[nH]1)Nc1ccc(C(=O)O)cc1
    -0.45	/
COCCNC(=O)C1=CC(c2ccc(C)cc2)=NS(=O)(=O)N1C
    0	-0.46
CCC(CC)C(=O)Nc1nnc(SCC(=O)Nc2ccc(F)cc2)s1
    -1.15	-0.81
Cc1ccc2nc3ccc(N4CCCCCCC4)nn3c(=O)c2c1
    0.2	-0.225
O=C1CC(Cc2ccccc2)C(=O)N1Cc1ccc2c(c1)OCO2 (centres undefined)
    -0.6	0.035
Cc1cc(CNC(=S)Nc2ccc(F)cc2F)nn1C
    2	-0.215
O=S(=O)(c1ccc(Sc2ccc(S(=O)(=O)N3CCCC3)cc2)cc1)N1CCCC1
    0.4	0.21
O=C(CO/N=C/c1ccccc1Cl)N1CCCCCC1
    -0.55	/
CCCC(c1nnnn1CC1CCCO1)N(Cc1cccs1)Cc1cc2ccc(C)c(C)c2[nH]c1=O (centres undefined)
    -0.2	/
Cc1cc(C)nc(NS(=O)(=O)c2ccc(NS(=O)(=O)c3ccccc3[N+](=O)[O-])cc2)n1
    /	-0.72
Cc1ccc(S(=O)(=O)N2C=Cc3ccccc3C2c2c[nH]c3ccccc23)c(C)c1 (centres undefined)
    0.8	2.42
COc1ccccc1C1CCN(c2ccc(CO)cc2[N+](=O)[O-])CC1
    /	0.29
CON(C)C(=O)c1cc2cc(S(C)(=O)=O)ccc2[nH]1
    /	-0.26
CC1(C)CC(=O)C=C(NCCN2CCN(C(=O)Cc3ccc(Cl)cc3)CC2)C1
    1.7	-0.11
N#CCSc1nc2cc(C(=O)NCc3ccco3)ccc2c2nc3ccccc3n12
    /	21.6
N#Cc1cccc(NC(=O)COC(=O)CCc2ccc(S(=O)(=O)N3CCOCC3)cc2)c1
    -0.6	/
Nc1cccnc1Oc1ccc(F)cc1F
    /	0.085
CCNC(=O)c1ccc(CN2CCOCC2)cc1
    -2.1	/
O=C1C2C3C=CC(CC3)C2C(=O)N1c1ccc(Cl)cc1[N+](=O)[O-] (centres undefined)
    /	0.265
CCOc1ccccc1N(C)C(=O)c1cc(S(=O)(=O)NCCc2ccc(OC)c(OC)c2)ccc1F
    /	-0.5
CCc1ccc(NC(=O)c2cc(C)[nH]n2)cc1
    1.1	-1.96
CCC(=O)NCc1cc(-c2nn(C)c(=O)c3ccccc23)ccc1C
    1.95	-0.07
CCCCCCNc1nc(Oc2ccccc2)nc(Oc2ccccc2)n1
    -0.2	/
O=S(=O)(c1ccsc1)c1cccs1
    -0.1	-0.225

Two entries drawn at random from those above, as already listed:
Fields: AID504770	Ba CapD inh
CCNC(=O)c1ccc(CN2CCOCC2)cc1
    -2.1	/
CCOC(=O)C1CCCN(C(=O)CC)C1 (centres undefined)
    0.6	0.81

Next section
Fields: AID504770	Ba CapD inh
O=C(N/N=C/c1cc2ccccc2o1)c1nc(-c2ccccc2)no1
    /	13.8
O=C(OCC1CCCCN1Cc1ccc(N2CCCC2)cc1)N1CCN(c2ccc(C(F)(F)F)cc2)CC1 (centres undefined)
    /	-0.93
O=C(O)c1cccc(S(=O)(=O)N2CCN(c3ccccc3)CC2)c1
    -0.2	/
N=C(N=C(N)N)N1N=CCC1c1ccccc1 (centres undefined)
    0	0.56
Cc1cc(OC(=O)N2CCOCC2)cc(C)c1Cl
    -0.15	0.565
Cc1ccc(SCc2cc(=O)[nH]c(Nc3nc4ccccc4o3)n2)cc1
    0.2	0.18
Cc1n[nH]c(C)c1S(=O)(=O)N(C)C
    -0.35	/
CC(OC(=O)c1cc(=O)c2ccccc2[nH]1)C(=O)Nc1ccccc1F (centres undefined)
    -0.55	/
O=C(CNc1cccc(C(F)(F)F)c1)N=Nc1c(O)[nH]c2ccccc12
    0.65	/
Cn1c(CCCCC(=O)O)nc2ccccc21
    -0.55	/
COc1cccc(C(=O)NCC(=O)N/N=C/c2ccc([N+](=O)[O-])s2)c1
    /	-0.79
O=C(Nc1nnc(CCS(=O)(=O)c2ccc(Cl)cc2)s1)c1ccc(Br)cc1
    /	-0.115
Cc1ccc2[nH]c3nc4ccccc4nc3c2c1
    0.05	5.78
O=C(NC1CCCC1)C(F)(F)C(F)(F)C(=O)NC1CCCC1
    1.35	0.01
O=C(c1cc(S(=O)(=O)N2CCCCC2)c[nH]1)N1CCCC1
    0.55	-0.085
Oc1ccc(C2N=C(c3ccccc3)NC(c3ccccc3)=N2)cc1
    0.15	0.205
NC(=O)c1c(NC(=O)CN2C(=O)S/C(=C\c3ccc(Cl)cc3Cl)C2=O)sc2c1CCCC2
    /	0.345
COc1ccc(C2=NN(CN3C(=O)C(=O)c4ccccc43)C(c3cccc([N+](=O)[O-])c3)C2)cc1 (centres undefined)
    /	-0.31
O=C(Nn1c(-c2ccc(F)cc2)nc2ccccc2c1=O)c1cc2cc(Br)ccc2oc1=O
    /	-0.065
CCOC(=O)c1cc(C(N)=O)c(SC)[nH]c1=O
    -1.05	/
O=C(O)Cc1cn2ccsc2n1
    -0.35	-0.385
CC(=O)N1CCc2[nH]c3ccc(C)cc3c2C1
    -1.15	8.81
Cc1nnc(C)c2c(C)n(C(C)c3ccccc3)c(C)c12 (centres undefined)
    -0.5	1.5
COc1cc(/C=N/NC(N)=S)ccc1OC(=O)c1ccco1
    -0.9	/

Screening data: PubChem BioAssay, ICCB-Longwood Screening Facility, Harvard Medical School
